From PubChem
ugtP null kill: growth inhibition of ugtP-null S. aureus, primary screen, RN4220 ugtP deletion, OD600; 16 h; some inactives read as strong as hits; 330,000 tested, 0.54% active; growth inhibition, % (no concentration beside the values); AID 1259309, 2017;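 active means z-score under -3 and OD600 up to 0.15 on both plates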;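 further: plate controls were untreated wells for no effect and antibiotic for full effect; wells of about 80 µL received 100 nL stock; the first replicate is given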
Mtb hypoxia inh: PubChem AID 1159583. M. tuberculosis hypoxia-regulated fluorescent reporter, fluorescence. fluorescence inhibition, % (concentration not given with the values). 300,000 tested, 0.1% active;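 active means 35 to 45% if threefold the growth effect, above 45% if 1.5-fold the growth effect; inactive means the rest, general growth blockers included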;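 further: wells of about 50 µL received 100 nL stock; 0% = vehicle wells and 100% = reference inhibitor wells; whole bacteria with a GFP reporter of the hypoxia response; strong numbers were not always called active; many hits fall short of the cut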
PrP 5UTR inh: inhibition of PrP 5' UTR reporter expression; cell-based PrP 5' UTR mRNA reporter, plate reader; inhibition, % (concentration not given with the values); 340,000 tested, 0.35% active;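 active means every replicate at 50% or more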;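 further: 0 = median of the neutral control wells; tested in H4 reporter cells; numbers are from one replicate; inactives centre near -14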
Sa RN4220 lethal: growth inhibition of S. aureus RN4220, primary screen, OD600 | inhibition, % (test concentration not listed) | 330,000 tested, 0.33% active | 16 h;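 active means z-score of -3 or lower and OD600 up to 0.18 on both plates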;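 further: plate controls were untreated cells for no effect and reference antibiotic for full effect; stock transfer was 100 nL into about 80 µL; one replicate is shown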
Autofluor counter: compound fluorescence in toxin protease inhibitor counterscreen | 360,000 tested, 3.1% active | compound autofluorescence counterscreen, microsphere flow cytometry; hits give high values | fluorescence intensity (no concentration beside the values);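 active means at least 3 SD above the mean of all compounds, about 16000 in these data; inconclusive means too few beads counted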;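 further: 100 nL of 1 mM stock went into each well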
BJeLR viability: MLPCN primary cell-based screen for lethality selective to Ras in HRASV12 cells; 300,000 tested, 0.17% active; inhibition, % (no concentration beside the values); BJeLR (HRASV12) viability, CellTiter-Glo ATP luminescence, 48 h; reference of the scale not given here; AID 1554, 2009;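 active means replicate mean above 50%; inconclusive means above 50% but judged a plate artefact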;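 further: 50 nL library stock added to about 25 µL; numbers are from one replicate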
Mtb hypoxia inh growth: also measured in Mtb hypoxia inh; calls as there; growth inhibition, %; measured here: M. tuberculosis growth (absorbance);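 0% = vehicle and 100% = reference antibiotic; read after six days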
Numbers without * were called inactive; ? = inconclusive; · = not tested or not shown.

SMILES	ugtP null kill	Mtb hypoxia inh	Mtb hypoxia inh growth	PrP 5UTR inh	Sa RN4220 lethal	Autofluor counter	BJeLR viability
CCC1S/C(=N/C(=O)NC2CCCCC2)NC1=O (stereo not drawn)	-1.9	5.0	7.6	-25.3	1.7	3070	-2.4
COC(=O)c1ccc(COc2c(F)c(F)cc(F)c2F)o1	0.1	2.0	-0.6	-12.8	5.2	3683	-1.3
CC1CN(C(C)CO)C(=O)c2cccc(NC(=O)c3ccc(-c4nccs4)cc3)c2OC1CN(C)C(=O)NC1CCCCC1 (stereo not drawn)	-10.3	0.8	8.1	·	4.3	·	·
COC(=O)c1ccccc1OCC(=O)NC1CCCCC1	3.1	6.3	9.3	-8.5	2.3	21631*	-6.9
O=C(NN=Cc1ccc(O)cc1)c1cccc(C(F)(F)F)c1	9.5	4.1	-5.0	·	3.1	·	·
Cc1cc2cc(C)c(SCC(=O)NCc3ccco3)nc2cc1C	4.6	0.1	-6.4	-10.3	4.7	2386	-12.4
O=Cc1cc2ccccc2nc1SCCCF	0.1	9.7	13.6	-29.1	5.7	2673	8.2
COc1ccc(NC(=O)CNS(=O)(=O)c2cccs2)c(OC)c1	6.2	-2.8	-9.6	-29.5	5.7	7345	-0.7
O=[N+]([O-])C(/C=C(\Cl)[N+](=O)[O-])=C(N1CCCCC1)N1CCCCC1	·	·	·	-19.6	·	4684	-2.0
CC(C)(C)C(=O)Nc1ccc(C(=O)COC(=O)C2CC2)cc1	11.8	4.6	-4.9	-63.8	6.1	·	·
CN(C(=O)COC(=O)c1ccccc1C(=O)N(C)c1ccccc1)c1ccccc1	·	·	·	-2.5	·	6210	-5.4
COc1ccc(NC(=O)CN(C)CC(=O)c2c(C)[nH]c3ccccc23)cc1	-6.9	-2.2	7.9	9.6	-0.3	8792	·

Whole records as entered above.
Profile of COC(=O)c1ccc(COc2c(F)c(F)cc(F)c2F)o1 → ugtP null kill: 0.1; Mtb hypoxia inh: 2.0; Mtb hypoxia inh growth: -0.6; PrP 5UTR inh: -12.8; Sa RN4220 lethal: 5.2; Autofluor counter: 3683; BJeLR viability: -1.3
Profile of COc1ccc(NC(=O)CN(C)CC(=O)c2c(C)[nH]c3ccccc23)cc1 → ugtP null kill: -6.9; Mtb hypoxia inh: -2.2; Mtb hypoxia inh growth: 7.9; PrP 5UTR inh: 9.6; Sa RN4220 lethal: -0.3; Autofluor counter: 8792; BJeLR viability: ·

The list goes on:
SMILES	ugtP null kill	Mtb hypoxia inh	Mtb hypoxia inh growth	PrP 5UTR inh	Sa RN4220 lethal	Autofluor counter	BJeLR viability
CC1CCCC(C)N1C(=O)COC(=O)CCC1CCCC1 (stereo not drawn)	-4.7	3.6	1.6	3.6	-0.9	6934	10.3
CCCc1nc(SC)[nH]c(=O)c1C	8.2	2.3	-2.6	-8.5	2.0	4156	-16.1
CCN(CC)S(=O)(=O)c1cccc(NC(=O)COC(=O)/C=C/c2cccs2)c1	11.1	-0.8	-9.8	-10.3	1.2	4458	1.1
CN(C)S(=O)(=O)c1cccc(NC(=O)CSc2nncn2-c2ccccc2)c1	8.5	11.0	9.4	-26.9	0.7	4593	3.0
COC(=O)c1cn(CC(=O)NC2CCCCC2)c2ccccc12	0.5	6.4	5.9	4.3	1.8	6852	-3.2
NC(=O)Nc1ccc(C(=O)OCC(=O)Nc2ccc(Cl)cc2C(=O)c2ccccc2)cc1	69.8	12.0	16.5	-38.0	-11.7	9307	-14.4
CCc1cc2c(=O)n(Cc3ccccc3)c(SC3CCOC3=O)nc2s1 (stereo not drawn)	1.5	-4.3	11.2	-27.9	4.3	3924	3.7
Cc1ccc(SCC(=O)NCc2ccc(F)cc2)cc1	2.0	13.5	3.9	-14.1	-3.1	4165	·
COc1ccc(OC)c(C=NNC(=O)c2ccc3nc[nH]c3c2)c1	8.2	-4.4	5.4	·	1.1	·	·
Cc1cc(OC(C)C(=O)NCc2cccnc2)c2c3c(c(=O)oc2c1)CCC3 (stereo not drawn)	7.5	6.0	15.5	-3.4	4.1	5923	-9.9
CCS(=O)(=O)c1nc(S(=O)(=O)c2ccc(Cl)cc2)c(N2CCC3(CC2)OCCO3)s1	5.8	-4.4	-6.4	-9.4	1.0	6144	-5.1
O=C(NCCC1CCCCN1S(=O)(=O)c1cccs1)C(=O)Nc1ccc(F)cc1 (stereo not drawn)	0.9	13.3	6.1	-5.5	0.6	6381	10.9
CCn1c(C)c(C)c2cc(C(=O)NCCCN3CCN(C)CC3)ccc21	-8.0	-6.1	5.2	-2.2	-2.1	6852	-3.4
COc1ccc(C(=O)NC(C)c2nnc(SCC(=O)NC3=NCCS3)n2C)cc1 (stereo not drawn)	12.9	-3.4	4.6	-8.7	-1.6	3818	-7.6
COC(=O)c1nn(-c2ccccc2)c(Sc2ccc(Br)cc2)c1C=NO	0.0	15.2	14.7	·	13.3	·	·
Cc1ccccc1NC(=O)CN1C(=O)N/C(=C\c2ccc(N3CCOCC3)c(F)c2)C1=O	·	·	·	-10.3	·	4312	6.1
CCNC(=O)CN(c1ccc(OC)c(OC)c1)S(=O)(=O)c1ccccc1	5.7	12.3	9.3	-7.9	1.9	3989	-15.8
CCOC(=O)COc1ccc(Oc2nc(C)cc(OC)n2)nn1	-4.8	2.3	8.2	-10.3	2.7	21448*	-3.1
Cc1ccc(C)c(S(=O)(=O)N2CCN(C(=O)c3ccc(C)s3)CC2)c1	3.0	3.5	-1.5	-7.5	3.0	5344	-8.0
CC(=O)C1C(c2ccncc2)NC(=O)NC1(O)C(F)(F)F (stereo not drawn)	12.9	5.1	-8.0	-12.6	3.1	22926*	-5.9
CCN(CC)S(=O)(=O)c1ccc(NS(=O)(=O)c2ccc3oc(=O)[nH]c3c2)cc1	2.4	1.3	4.6	-32.0	2.9	5486	-7.7
CN(CC(=O)NCCc1ccc(F)cc1)CC(=O)Nc1ccc(F)c(F)c1F	12.5	2.0	-1.0	-3.5	6.8	4224	·
COc1ccc(NC(=O)Cc2nnc(SCC(=O)NC3=NCCS3)n2C)cc1	7.0	9.9	-1.3	-30.4	2.3	3600	-4.1
Cc1occc1-c1nnc(SCC(=O)Nc2nccs2)n1CCc1ccccc1	-9.8	-6.3	0.0	·	9.3	·	-10.3
COc1cc([C@@H]2CC=C(C(=O)O)[C@H](c3ccc(C)cc3)N2S(=O)(=O)c2ccc(C)cc2)cc(OC)c1OC	10.5	-5.9	5.7	-15.4	2.3	3730	·
CON(C)c1nc(Oc2ccc(=O)[nH]n2)nc(N(C)C)n1	-10.7	0.5	8.5	-24.6	6.9	5494	3.3
COc1cccc(CN(C)C(=O)c2cc(-c3ccc(F)cc3)nc3ccccc23)c1	-7.2	1.3	9.3	-9.6	11.8	5160	-4.8
Cn1cccc1C=NNC(=O)Cc1ccccc1	-2.7	8.9	-1.2	·	0.0	·	·
COc1ccc(C(=O)C(C)OC(=O)CNC(=O)C2CCCCC2)cc1 (stereo not drawn)	0.6	-0.3	-4.1	-12.7	1.5	8428	·
COc1ccc(/C=C(/NC(=O)c2ccccc2OC)C(=O)Nc2ccc(C(=O)O)cc2)cc1	4.7	4.0	6.4	-5.3	1.0	4862	6.3
COc1ccccc1CCNS(=O)(=O)c1ccc(C(=O)O)n1C	0.0	2.4	4.5	-19.4	2.8	6341	-4.4
Fc1cc(F)c(NC(=S)N2CCOCC2)c(F)c1	-1.5	9.1	-0.1	-3.8	-0.4	2980	-6.5
C/C(=N\NC(=S)NC1CCCCC1)c1ccc(C#N)cc1	·	·	·	-16.8	·	9550	1.7
CCCCN(C(=O)c1ccc([N+](=O)[O-])o1)c1c(N)n(CCCC)c(=O)[nH]c1=O	4.7	0.2	2.4	-12.6	15.9	6500	-0.3
O=C(NC(=O)N1CCOCC1)c1ccccc1	5.9	-2.0	2.0	-17.4	3.8	9025	-1.4
COc1cc(CNCc2cc(OC)c(OC)c(OC)c2)cc(OC)c1	1.8	-2.7	17.4	-79.9	2.5	·	9.0
O=C(Nc1ccc(N2CCN(C(=O)c3ccco3)CC2)cc1)c1ccccc1Br	0.5	8.1	-6.3	-12.3	0.1	?	-5.3
CCOc1ccc(/C(CCC(=O)O)=N/NC(=S)NC(C)C)cc1	·	·	·	-19.4	·	3234	-4.6
COc1ccc(Cc2c(N)nc(C)nc2N)cc1	9.2	-2.0	-9.7	-4.2	10.0	4065	-3.7
Cc1ccc(O)c(NC(=O)c2noc(C(C)C)c2[N+](=O)[O-])c1	12.6	2.5	6.8	-5.2	21.0	4658	-7.2
Cc1ccc(N)cc1-n1c(C)ccc1C	-4.6	2.8	6.2	-31.4	5.4	9500	0.5
O=C(Cn1c(CO)nc2ccccc21)Nc1ccccc1Cl	·	·	·	-8.2	·	4615	-0.5
COc1cc(C2c3[nH]c4ccccc4c3CCN2Cc2cn(C)nc2C)ccc1F (stereo not drawn)	17.0	7.1	-4.9	4.4	4.7	4844	4.4
CN1/C(=C\C=C2/SC(=S)N(CC(=O)O)C2=O)C(C)(C)c2ccccc21	-5.5	62.1*	-1.4*	3.5	0.3	2717	12.1
O=C1CC(c2cccc(Br)c2)C2=C(COC2=O)N1 (stereo not drawn)	-1.0	-3.8	2.5	0.5	-4.5	4573	·
O=C(CCn1nc(-c2ccc(Cl)cc2)c2ccccc2c1=O)NN1CCOCC1	1.6	17.0	4.5	·	2.1	6123	-8.9
COc1ccc(NC(=O)CSc2nnc(-c3cnccn3)n2C)cc1OC	3.5	0.5	-1.8	-1.1	3.6	5409	-6.3
COc1ccc(S(=O)(=O)N2CCOCC2)cc1NC(=O)CCCOc1ccccc1	-1.2	-0.5	-4.9	-15.7	1.3	3593	·

Only ugtP null kill, for 2 of the compounds above:
compound,ugtP null kill
O=C(CCn1nc(-c2ccc(Cl)cc2)c2ccccc2c1=O)NN1CCOCC1,1.6
COc1ccc(NC(=O)CSc2nnc(-c3cnccn3)n2C)cc1OC,3.5

Next section:
SMILES	ugtP null kill	Mtb hypoxia inh	Mtb hypoxia inh growth	PrP 5UTR inh	Sa RN4220 lethal	Autofluor counter	BJeLR viability
Cc1ccc(OCC(=O)N2N=C(C(F)(F)F)CC2(O)C(C)(C)C)cc1C (stereo not drawn)	-6.9	4.1	8.6	-0.2	9.3	19845*	27.1
N#C/C(=C/c1ccccc1[N+](=O)[O-])c1nnc2n1CCCCC2	10.2	8.2	17.0	-12.1	7.0	2592	-0.4
COc1ccccc1Nc1nnc(SCC(=O)NC(=O)Nc2ccc3c(c2)OCCO3)s1	·	·	·	-14.5	·	2157	-3.7
Clc1ccccc1C1CC(c2ccccc2)Nc2ncnn21 (stereo not drawn)	0.5	·	·	-26.7	3.4	6044	4.5
CCCCc1ccc(NC(=S)N2CCN(C(=O)c3ccco3)CC2)cc1	-2.5	3.9	-12.8	-5.3	2.6	4660	1.6
CCCc1cc(=O)[nH]c(SCC(=O)NCCN2C(=O)CSC2=O)n1	1.5	11.7	6.1	-8.9	-2.7	8726	·
O=C(CCN1C(=O)c2cccc([N+](=O)[O-])c2C1=O)NC1CCCCCC1	0.6	0.4	3.8	-10.6	-1.2	4192	·
CCOc1ccc2nc(/N=C/c3nc(-c4ccc(Br)cc4)oc3O)sc2c1	·	·	·	-31.9	·	2758	-9.1
Cc1ccc2c(c1)CCCN2C(=O)Nc1ccc2c(c1)OCO2	-3.2	16.3	8.6	-27.0	3.7	9359	-9.8
COCCCn1c(SCc2cccc(OC)c2)nc2cc(OC)c(OC)cc2c1=N	-16.4	-0.4	25.4	-28.0	14.7	23429*	-0.5
CC1(C)CC(=O)C(C(c2ccccc2F)C2C(=O)CC(C)(C)CC2=O)C(=O)C1	-0.9	17.8	4.7	-21.5	-7.8	3073	-1.1
CCOC(=O)c1c(-c2ccccc2)csc1NC(=O)c1ccc(S(=O)(=O)N2CC(C)OC(C)C2)cc1 (stereo not drawn)	-2.0	2.3	-1.6	-19.7	2.9	23061*	-10.1
CCOc1c(Cl)cc(CNc2nnnn2C)cc1OC	·	·	·	-19.5	·	3690	1.6
Cc1ccc(C(=O)Nc2ccc(N3CCOCC3)nc2N2CCOCC2)cc1	10.3	7.8	7.0	-20.6	4.8	·	11.3
Cc1cccc(C)c1-n1cccc1/C=C1\SC(=S)N(c2cccc(C(=O)O)c2)C1=O	78.7	12.0	-1.1	-7.1	81.2	4360	-0.1
CCC(C(=O)N1CCN(c2ccccc2OC)CC1)c1ccccc1 (stereo not drawn)	8.0	10.1	-2.6	-144.3	4.1	1957	3.7
COc1cc(C(=O)Oc2cccc(/C=N/NC(=O)c3cc(C)[nH]n3)c2)cc(OC)c1OC	·	·	·	-12.0	·	4559	1.4
O=C(O)c1cccc(C(=O)c2cccc(C(=O)O)c2)c1	8.5	6.6	8.4	-25.0	3.5	4289	-4.9
